Screens deposited in PubChem by several laboratories.
FGF22 binding: FGF22 (human) thermal shift binding. hit rate 1.5% among 340,000. Q9HCT0. calls only at 9.99 µM. AID 651658. recombinant FGF22 thermal shift, SYPRO orange fluorescence; percent of sucrose octasulfate shift, DMSO zero;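 active = melting point raised past a set limit in the mean and every replicate; three in four hits are not shown here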
Target sequence (Q9HCT0 whole entry, looked up): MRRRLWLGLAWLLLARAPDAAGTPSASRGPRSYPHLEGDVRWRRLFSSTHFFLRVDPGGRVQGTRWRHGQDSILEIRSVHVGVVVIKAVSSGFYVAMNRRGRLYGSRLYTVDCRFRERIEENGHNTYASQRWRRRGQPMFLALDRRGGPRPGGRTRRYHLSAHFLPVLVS
E coli growth: blocks Escherichia coli growth. OD600, 23 h; stronger effect = lower value. OD600 absorbance (concentration not given with the values). hit rate 0.21% among 330,000;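 active = OD600 absorbance below the run mean of sample wells minus 3.6 SD, in any replicate, cut at about 0.56 in these data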;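 also: stock transfer was 300 nL into about 60 µL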
Beta cell apopt: beta cell apoptosis inhibition. hit rate 0.8% among 300,000. protection from apoptosis, % (concentration not given with the values). AID 435005. INS-1E cytokine-induced death, ATP luminescence, 48 h; percent of positive-control rescue, neutral wells zero;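 active = all replicates at 75% or more, or half of them and the mean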;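 also: 0% = cytokine-treated negative control wells and 100% = positive control rescue; higher means more ATP so stronger rescue from cytokine killing; wells of about 40 µL received 100 nL stock; the first replicate is given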
AF4-AF9 inh: blocks AF4 peptide binding to human AF9; inhibition, % at 10 µM; P42568; hit rate 0.47% among 350,000; AlphaScreen, biotin-AF4 peptide binding to FLAG-AF9; AID 651704;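 active = every replicate reaching a set inhibition limit, whatever the replicate mean, cut at about 25% in these data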;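 also: 0% = plate neutral control median and 100% = total signal loss; the record names both 10 and 1 µM as test concentration; the first replicate is given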
Target sequence (P42568 whole entry, looked up): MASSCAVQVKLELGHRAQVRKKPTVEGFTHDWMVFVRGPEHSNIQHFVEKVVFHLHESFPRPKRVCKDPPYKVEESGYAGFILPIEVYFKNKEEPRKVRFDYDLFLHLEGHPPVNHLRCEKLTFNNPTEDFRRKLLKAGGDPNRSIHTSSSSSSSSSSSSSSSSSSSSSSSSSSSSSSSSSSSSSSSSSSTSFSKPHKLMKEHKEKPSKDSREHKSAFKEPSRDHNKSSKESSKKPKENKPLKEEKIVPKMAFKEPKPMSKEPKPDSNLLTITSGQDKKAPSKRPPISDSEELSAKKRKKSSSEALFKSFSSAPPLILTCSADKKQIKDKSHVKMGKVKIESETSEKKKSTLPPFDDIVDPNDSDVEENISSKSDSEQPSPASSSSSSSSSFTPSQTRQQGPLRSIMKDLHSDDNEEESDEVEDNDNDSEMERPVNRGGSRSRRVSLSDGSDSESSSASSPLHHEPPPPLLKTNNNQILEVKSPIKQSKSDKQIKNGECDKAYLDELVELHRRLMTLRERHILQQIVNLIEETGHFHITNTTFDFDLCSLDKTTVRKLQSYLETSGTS
A1 inh: inhibitors of the anti-apoptotic protein A1, read as caspase activation; MEF A1-2A-BIM cells, Caspase-Glo 3/7 luminescence, 3 h; percent of clofoctol response, vehicle zero; caspase activation, % (no concentration beside the values); hit rate 0.066% among 330,000;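 active = over half of replicate activation scores above 10%, or exactly half above 10 with the replicate mean above 10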;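 also: wells of about 30 µL received 50 nL stock; many hits fall short of the cut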
UCH37 inh: blocks the human deubiquitinase UCH37. purified proteasome/UCH37, Ub-AMC cleavage fluorescence. inhibition, % (test concentration not listed). hit rate 0.33% among 330,000. AID 588478;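 active = mean of two replicates above 20%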;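 also: 0% = compound-free wells with enzyme and 100% = wells lacking proteasome; stock transfer was 100 nL into about 20 µL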
Target sequence (Q9Y5K5 whole entry, looked up): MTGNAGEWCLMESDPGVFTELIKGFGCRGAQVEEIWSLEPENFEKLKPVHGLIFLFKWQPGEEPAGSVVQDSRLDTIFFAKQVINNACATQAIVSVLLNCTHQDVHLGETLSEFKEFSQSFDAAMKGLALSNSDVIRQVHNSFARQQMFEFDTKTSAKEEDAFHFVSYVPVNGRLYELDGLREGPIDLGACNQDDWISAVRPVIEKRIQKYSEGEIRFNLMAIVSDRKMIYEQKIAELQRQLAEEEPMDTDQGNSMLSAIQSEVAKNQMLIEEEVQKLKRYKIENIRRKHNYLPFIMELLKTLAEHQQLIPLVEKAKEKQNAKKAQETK
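Reagent: Ub-AMC substrate; assay system: Proteasome-associated human UCH37 deubiquitinase; controls: no-proteasome and no-compound wells; read-out: % inhibition of Ub-AMC cleavage fluorescence; timing: 30 min preincubation with enzyme, 25 min cleavage at room temperature; signal: AMC fluorescence from Ub-AMC cleavage, excitation 355 nm, emission 460 nm; buffer or medium: Tris-HCl pH 7.4 plus ovalbumin, ATP-MgCl2, DTT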
T cruzi repl: blocks replication of Trypanosoma cruzi | T. cruzi beta-gal in NIH3T3, luminescence, 90 h | inhibition, % (no concentration beside the values) | hit rate 1.4% among 300,000 | AID 1885;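 active = mean inhibition across valid replicates above about 55%, limit read from the data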;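 also: signal also drops with host cell toxicity which is not excluded here; 0% = plate median of DMSO wells and 100% = zero luminescence signal; higher percent means less beta-gal luminescence so fewer parasites; stock transfer was 50 nL into about 50 µL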
rRNA inh HTS: selective bacterial rRNA inhibition in E. coli; E. coli WT GFP vs humanized-ribosome RFP mutants, fluorescence, 24 h; stronger effect = lower value; DMSO median 0, no signal -100; GFP signal change (wild-type ribosome), % (concentration not given with the values); hit rate 1.6% among 350,000; AID 720706;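 active = significant combined selectivity score with lowered wild-type GFP, culture density cut under 30%, mutant RFP and density less affected; inactive = any of these conditions unmet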; also: one replicate is shown; some compounds called inactive have numbers as strong as hits
rRNA inh HTS OD600: further read-out of rRNA inh HTS, marked with its call; OD600 change, %; measured here: OD600 growth;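 optical density of the mix in the first replicate; 0 = DMSO median and -100 = no signal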
rRNA inh HTS RFP: further read-out of rRNA inh HTS, marked with its call; RFP signal change, %; measured here: RFP humanized mutant strains;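 first replicate; 0 = DMSO median and -100 = no signal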
Active calls of the source: *. The list is partial; rates above refer to the full screens.

What do the screens show for `Brc1ccc(-c2cnnc(N3CCCC3)n2)cc1`?
E coli growth: 0.69; Beta cell apopt: -4; A1 inh: -1.4; UCH37 inh: 2.3; T cruzi repl: -6

What do the screens show for `Cc1nn(-c2ccccc2)c2c1C(c1ccco1)C(C#N)=C(N)O2` (centres undefined)?
E coli growth: 0.67; Beta cell apopt: -4; A1 inh: 0.1; UCH37 inh: 1.0; T cruzi repl: -16

How did CCOCCCNc1nc(=S)[nH]c2cc(OC)c(OC)cc12 do in these assays?
E coli growth: 0.68; Beta cell apopt: -3; A1 inh: 0.5; UCH37 inh: -0.5; T cruzi repl: 3

What do the screens show for `CC(=O)c1cccc(NC(=O)Cn2nc(-c3ccccc3Cl)ccc2=O)c1`?
FGF22 binding: inactive; E coli growth: 0.71; Beta cell apopt: 35; AF4-AF9 inh: -1.5; A1 inh: 0.4; UCH37 inh: 2.4; T cruzi repl: 0; rRNA inh HTS: -4; rRNA inh HTS OD600: 5; rRNA inh HTS RFP: 2.9

How did O=C1CSC(c2cccs2)N1c1ccccc1 (centres undefined) do in these assays?
FGF22 binding: inactive; E coli growth: 0.61; Beta cell apopt: -6; AF4-AF9 inh: 1.2; A1 inh: 0.0; UCH37 inh: 0.2; T cruzi repl: -10; rRNA inh HTS: 7; rRNA inh HTS OD600: 6; rRNA inh HTS RFP: 6.4

What do the screens show for `COc1ccc(CNc2nc(-c3cccnc3)nn2C(=O)c2cccs2)cc1`?
E coli growth: 0.84; Beta cell apopt: -27; A1 inh: -0.2; UCH37 inh: 2.2; T cruzi repl: 4

Results for CCCc1ccc(C(=O)/C=C/N(C)C)cc1 ?
E coli growth: 0.65; Beta cell apopt: 2; AF4-AF9 inh: 0.5; A1 inh: -7.8; UCH37 inh: 18; T cruzi repl: 1; rRNA inh HTS: -10; rRNA inh HTS OD600: -6; rRNA inh HTS RFP: -2.6

Results for Cc1ccc(S(=O)(=O)NC(CC(=O)O)c2ccccc2)c(C)c1 (centres undefined) ?
E coli growth: 0.72; Beta cell apopt: 3; A1 inh: 0.4; UCH37 inh: -1.0; T cruzi repl: -4

How did COc1ccc(C2N3CC4(C)CN2CC(C)(C3)C4)cc1OC (centres undefined) do in these assays?
E coli growth: 0.72; Beta cell apopt: -2; AF4-AF9 inh: -4.6; A1 inh: 0.3; UCH37 inh: 1.2; T cruzi repl: -8

Results for Cc1cccc2cc3c(N)c(C#N)sc3nc12 ?
E coli growth: 0.69; Beta cell apopt: 6; A1 inh: 0.0; UCH37 inh: 3.5; T cruzi repl: 5

The closing 2 records of the part before come first, to join the parts.
How did COc1ccc(C2N3CC4(C)CN2CC(C)(C3)C4)cc1OC (centres undefined) do in these assays?
E coli growth: 0.72; Beta cell apopt: -2; AF4-AF9 inh: -4.6; A1 inh: 0.3; UCH37 inh: 1.2; T cruzi repl: -8

Results for Cc1cccc2cc3c(N)c(C#N)sc3nc12 ?
E coli growth: 0.69; Beta cell apopt: 6; A1 inh: 0.0; UCH37 inh: 3.5; T cruzi repl: 5

How did COCc1cc(C)nc(OCC(=O)N/N=C/c2ccc(C)o2)c1C#N do in these assays?
FGF22 binding: inactive; Beta cell apopt: -3; AF4-AF9 inh: -0.8; A1 inh: 0.3; T cruzi repl: 2; rRNA inh HTS: -21; rRNA inh HTS OD600: -29; rRNA inh HTS RFP: -11

Results for CCCCOC(=O)Cn1cnc2ccc(Br)cc2c1=O ?
E coli growth: 0.66; Beta cell apopt: -14; A1 inh: 0.3; UCH37 inh: 5.7; T cruzi repl: -4

Results for COc1ccc(-c2nn(-c3ccccc3)cc2/C=C(/C#N)C(N)=O)cc1[N+](=O)[O-] ?
E coli growth: 0.74; Beta cell apopt: -3; A1 inh: 0.1; UCH37 inh: -1.3; T cruzi repl: -15

What do the screens show for `CCn1c(SCC(=O)Nc2sc3c(c2C#N)CCC(C(C)(C)C)C3)nnc1-c1ccco1` (centres undefined)?
E coli growth: 0.71; Beta cell apopt: -2; A1 inh: 0.3; UCH37 inh: 2.8; T cruzi repl: -1

Results for Cc1cc(C(=O)Nc2ccccc2C)n(-c2ccccc2)n1 ?
FGF22 binding: inactive; E coli growth: 0.68; Beta cell apopt: 2; AF4-AF9 inh: -6.0; A1 inh: 0.5; UCH37 inh: 1.2; T cruzi repl: -2; rRNA inh HTS: 9; rRNA inh HTS OD600: 9; rRNA inh HTS RFP: 0.4

How did Cc1ccc(O)c(NS(=O)(=O)c2cccc3nsnc23)c1 do in these assays?
FGF22 binding: inactive; E coli growth: 0.72; Beta cell apopt: -2; AF4-AF9 inh: 11; A1 inh: -0.1; UCH37 inh: 0.6; T cruzi repl: -5; rRNA inh HTS: -1; rRNA inh HTS OD600: 1; rRNA inh HTS RFP: -1.5

What do the screens show for `CCN(Cc1cccs1)C(=O)CN1C(=O)NC(c2ccccc2)(c2ccccc2)C1=O`?
FGF22 binding: inactive; Beta cell apopt: -1; AF4-AF9 inh: 5.3; A1 inh: -0.9; rRNA inh HTS: -12; rRNA inh HTS OD600: -31; rRNA inh HTS RFP: 0.3

Results for OC1(c2ccccc2)CCN(Cc2ccccc2)CC1 ?
E coli growth: 0.65; Beta cell apopt: -15; AF4-AF9 inh: 2.2; A1 inh: 0.1; UCH37 inh: 1.2; T cruzi repl: 2; rRNA inh HTS: 21; rRNA inh HTS OD600: 5; rRNA inh HTS RFP: -1.1

Results for CCn1cc(C2CC(=O)NC2=O)c2ccccc21 (centres undefined) ?
FGF22 binding: inactive; E coli growth: 0.69; Beta cell apopt: -1; AF4-AF9 inh: -1.8; A1 inh: 0.3; UCH37 inh: 3.8; T cruzi repl: -5; rRNA inh HTS: 6; rRNA inh HTS OD600: 9; rRNA inh HTS RFP: -4.7

What do the screens show for `CCOc1ccc(-n2c(=S)sc3c(=O)n(-c4ccccc4)c(SCC(=O)O)nc32)cc1`?
FGF22 binding: inactive; E coli growth: 0.64; Beta cell apopt: 3; AF4-AF9 inh: -6.7; A1 inh: 0.0; UCH37 inh: 9.4; T cruzi repl: -11; rRNA inh HTS: -21; rRNA inh HTS OD600: -17; rRNA inh HTS RFP: -25

What do the screens show for `CC1(C)C[C@H]2C3=CCC4[C@@]5(C)CC[C@H](O)[C@](C)(CO)C5CC[C@@]4(C)[C@]3(C)C[C@H]3O[C@@H]1[C@H](O)[C@]32CO` (some centres undefined)?
FGF22 binding: inactive; Beta cell apopt: 2; AF4-AF9 inh: -0.8; A1 inh: 0.2; UCH37 inh: 3.1; rRNA inh HTS: -3; rRNA inh HTS OD600: -5; rRNA inh HTS RFP: 4.1

What do the screens show for `CCN1CCN(Cc2c(O)ccc3c(=O)c(-c4ccccc4OC)coc23)CC1`?
E coli growth: 0.68; Beta cell apopt: 3; A1 inh: 0.0; UCH37 inh: inactive; T cruzi repl: 29

What do the screens show for `CCCCNC(=O)C(=O)N/N=C/c1ccc(OCC(=O)Nc2cccc(OC)c2)c(OC)c1`?
FGF22 binding: inactive; Beta cell apopt: -5; AF4-AF9 inh: -4.7; A1 inh: 0.9; T cruzi repl: 4; rRNA inh HTS: 3; rRNA inh HTS OD600: 3; rRNA inh HTS RFP: -3.6

Results for Cc1c(NC(=O)COC(=O)c2ccccc2Cl)c(=O)n(-c2ccccc2)n1C ?
FGF22 binding: inactive; E coli growth: 0.68; Beta cell apopt: -11; AF4-AF9 inh: -2.5; A1 inh: -0.1; UCH37 inh: 1.6; T cruzi repl: -5; rRNA inh HTS: 8; rRNA inh HTS OD600: 7; rRNA inh HTS RFP: -0.2

What do the screens show for `COc1ccc(NC(=O)CN(C)C(=O)c2cn(-c3ccccc3)nc2-c2ccc(F)cc2)cc1`?
FGF22 binding: inactive; E coli growth: 0.69; Beta cell apopt: -3; AF4-AF9 inh: 2.2; A1 inh: 2.3; UCH37 inh: 4.4; rRNA inh HTS: -25; rRNA inh HTS OD600: -29; rRNA inh HTS RFP: 1.0

Results for COC(=O)c1c(NC(=O)c2nc3ccccc3s2)sc2c1CC(C)(C)NC2(C)C ?
FGF22 binding: inactive; E coli growth: 0.77; AF4-AF9 inh: 6.5; A1 inh: 1.0; UCH37 inh: -68; T cruzi repl: 50; rRNA inh HTS: 3; rRNA inh HTS OD600: 1; rRNA inh HTS RFP: 5.1

Results for CN(C)S(=O)(=O)N1CCN(CC(O)COc2ccc3cc(Br)ccc3c2)CC1 (centres undefined) ?
E coli growth: 0.71; Beta cell apopt: 5; A1 inh: -0.4; UCH37 inh: 4.3; T cruzi repl: 18

How did c1ccc(CCN2CCN=C2Nc2ccccc2)cc1 do in these assays?
FGF22 binding: inactive; E coli growth: 0.69; Beta cell apopt: 0; AF4-AF9 inh: -7.7; A1 inh: -0.5; UCH37 inh: 4.3; T cruzi repl: 1; rRNA inh HTS: 20; rRNA inh HTS OD600: 10; rRNA inh HTS RFP: -2.1

How did CCCN(CCC)Cc1cc(=O)oc2cc3c(cc12)CCC3 do in these assays?
FGF22 binding: inactive; E coli growth: 0.67; Beta cell apopt: 2; AF4-AF9 inh: -4.6; A1 inh: 0.0; UCH37 inh: 4.7; T cruzi repl: 15; rRNA inh HTS: -24; rRNA inh HTS OD600: -42; rRNA inh HTS RFP: 0.0

How did O=C1c2ccccc2[C@@H]2C[C@@H](O)[C@H](Nc3ccccc3-c3ccccc3)CCN12 do in these assays?
FGF22 binding: inactive; E coli growth: 0.72; AF4-AF9 inh: 4.9; UCH37 inh: -2.2; rRNA inh HTS: -25; rRNA inh HTS OD600: -35; rRNA inh HTS RFP: -8.0

How did CC[C@@]1(C(=O)OC)N[C@H](CN(C)C(=O)COc2ccccc2)[C@@H]2C(=O)N(Cc3ccccc3)C(=O)[C@@H]21 do in these assays?
FGF22 binding: inactive; E coli growth: 0.68; AF4-AF9 inh: -1.3; UCH37 inh: 2.0; rRNA inh HTS: 14; rRNA inh HTS OD600: 15; rRNA inh HTS RFP: 4.0

What do the screens show for `CSc1nc(N2CCCC2)c2c(c1C#N)CC(C)(C)OC2`?
E coli growth: 0.72; A1 inh: 0.4; UCH37 inh: 0.1; T cruzi repl: 3

Results for CC(=O)N1CCN(c2ccccc2NC(=O)c2ccc(Br)o2)CC1 ?
FGF22 binding: inactive; E coli growth: 0.72; Beta cell apopt: -11; AF4-AF9 inh: 3.5; A1 inh: 0.4; UCH37 inh: 1.1; T cruzi repl: 6; rRNA inh HTS: -11; rRNA inh HTS OD600: -23; rRNA inh HTS RFP: 1.9

Results for CC1SC(=Nc2ccccc2)N(S(=O)(=O)c2ccccc2)C1=O (centres undefined) ?
FGF22 binding: inactive; E coli growth: 0.66; Beta cell apopt: -3; AF4-AF9 inh: 8.7; A1 inh: 0.3; UCH37 inh: 0.7; T cruzi repl: 0; rRNA inh HTS: 11; rRNA inh HTS OD600: 6; rRNA inh HTS RFP: -2.0

How did C/C(=N/NC(=O)Cc1ccccc1)c1ccc(C)s1 do in these assays?
FGF22 binding: inactive; Beta cell apopt: -6; AF4-AF9 inh: 0.8; A1 inh: 1.2; T cruzi repl: -8; rRNA inh HTS: 0; rRNA inh HTS OD600: 6; rRNA inh HTS RFP: -4.9
